High-throughput results from PubChem BioAssay.
Arbovirus anti: blocks arbovirus infection; actives 0.37% (n = 200,000); inhibition, % at 10 µM; arbovirus infection cell-based antiviral screen;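 active = inhibition from about 30%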;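 also: bluetongue infection of BSR cells; cell survival read as ATP light after 72 h; 0% = infected wells without compound and 100% = uninfected wells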
Mtb bLac sens: beta-lactam sensitization of Mtb H37Rv. actives 0.27% (n = 330,000). inhibition, % at 25 µM. M. tuberculosis H37Rv growth with meropenem, percent inhibition; hits of this screen are not shown here. AID 434955;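 active = about 74% or more and at least 40 points above the plate without the antibiotic, then above 30% in a dose series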;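 also: growth measured after seven days incubation then overnight dye step; 0% = bacteria only wells and 100% = bacteria with antibiotic; twin plates without the antibiotic show which effects depend on it; some results filed as inactive read as strong as hits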
YopH inh: inhibitors of Yersinia enterocolitica YopH tyrosine phosphatase | fluorescence Ex485/Em525 | actives 0.16% (n = 140,000) | inhibition, %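 (about 10 µM by stock and volumes)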;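 active = inhibition of 50% or more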;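 also: controls were vehicle for no effect and minimum signal wells for full effect; inactives centre near -20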
RecA intein inh: blocks M. tuberculosis RecA intein splicing; P9WHJ3; cell-free RecA intein splicing, fluorescence; actives 0.75% (n = 290,000); AID 2221; inhibition, %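 (about 9 µM by stock and volumes)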; in the data active = inhibition above about 30%;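 also: 0% = vehicle wells and 100% = reference inhibitor control wells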
Target sequence (P9WHJ3 whole entry, looked up): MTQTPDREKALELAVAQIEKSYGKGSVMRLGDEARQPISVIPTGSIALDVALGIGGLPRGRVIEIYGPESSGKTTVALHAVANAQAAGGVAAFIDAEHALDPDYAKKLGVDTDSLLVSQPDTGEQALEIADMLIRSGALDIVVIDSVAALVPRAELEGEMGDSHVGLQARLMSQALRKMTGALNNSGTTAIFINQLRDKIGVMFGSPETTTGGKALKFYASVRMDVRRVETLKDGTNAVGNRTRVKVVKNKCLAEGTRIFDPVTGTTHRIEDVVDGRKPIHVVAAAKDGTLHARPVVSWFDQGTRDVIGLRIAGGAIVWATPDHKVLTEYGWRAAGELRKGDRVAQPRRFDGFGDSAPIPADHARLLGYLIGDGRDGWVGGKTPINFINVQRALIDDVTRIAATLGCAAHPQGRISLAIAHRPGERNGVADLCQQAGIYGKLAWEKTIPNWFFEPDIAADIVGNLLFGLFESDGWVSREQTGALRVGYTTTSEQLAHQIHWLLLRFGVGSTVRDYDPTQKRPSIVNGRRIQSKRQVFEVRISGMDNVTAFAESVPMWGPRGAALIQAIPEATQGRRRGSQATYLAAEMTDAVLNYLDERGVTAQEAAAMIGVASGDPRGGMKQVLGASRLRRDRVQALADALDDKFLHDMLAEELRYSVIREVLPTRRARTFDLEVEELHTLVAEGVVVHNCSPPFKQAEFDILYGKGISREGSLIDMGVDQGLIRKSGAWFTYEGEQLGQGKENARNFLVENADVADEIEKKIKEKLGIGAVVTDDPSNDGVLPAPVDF
Mtb H37Rv: M. tuberculosis H37Rv growth inhibitors, H37Rv strain (AID 1626). M. tuberculosis H37Rv growth inhibition; higher % means a stronger effect. inhibition, % at 10 µM, or IC50 in µM where a hit was titrated. actives 0.95% (n = 220,000);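 active = confirmed in a dose series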;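 also: bacteria incubated seven days before Alamar blue readout; 0% = bacteria only wells and 100% = bacteria with antibiotic wells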
Arbovirus anti repeat: second read-out of Arbovirus anti, no call of its own (marks repeat the call); inhibition, %; measured here: 10K subset replicate screen; many hits read low in the repeat;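 first of two repeat runs on a subset; 0% = infected and 100% = uninfected wells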
Numbers without * were called inactive; . = no result given. The list is partial. The share of hits here may be higher or lower than overall.

SMILES	Arbovirus anti	Mtb bLac sens	YopH inh	RecA intein inh	Mtb H37Rv	others
Nc1ccc(C(=O)NCc2ccccc2)cc1	1.3	-4.1	.	-6.2	8.9%
CC(=O)NCc1ccc(S(=O)(=O)NC(C)CCc2ccccc2)cc1 (centres undefined)	.	0.3	.	2.4	.
Cc1ccc(C)c(N2CCN(C(=O)c3cc4ccccc4oc3=O)CC2)c1	15.5	4.9	-4.4	0.8	3.4%	Arbovirus anti repeat=12.2
O=C(Nc1ccc(S(=O)(=O)N2CCCC2)cc1)c1ccccc1	.	-10.2	.	-0.3	.
Cc1ccc2c(c1)-c1ccccc1S(=O)(=O)N2	.	-0.8	-3.0	.	-11.2%
Cc1cccc(-n2nnc3c(=O)n(CC(=O)Nc4cc(C)on4)cnc32)c1	-2.9	10.3	.	-0.3	20.7%
O=C(CN1C(=O)COc2ccccc21)N(Cc1cccnc1)Cc1cccc(F)c1	10.7	-16.9	-48.7	2.3	-1.6%
CC(=O)Nc1cc(C(=O)N2CCCC2)ccc1Sc1ccc(Cl)cc1	13.0	-7.2	-30.8	0.2	-9.6%
O=C(c1ccco1)C12CN3CN(CN(C3)C1)C2	12.2	-4.5	-32.2	1.2	-4.4%
O=C(Nc1cccnc1)C1CCN(S(=O)(=O)c2ccc(Cl)cc2)CC1	.	1.7	.	2.8	.
CC1CCN(S(=O)(=O)N2CCC(C(=O)NCCC3=CCCCC3)CC2)CC1	2.1	0.5	.	-2.6	4.2%
COC(=O)N(C)c1nc2ccccc2s1	-5.4	-10.9	-33.2	1.8	-10.1%
O=C(Nc1ccc(-n2nncc2-c2ccco2)cc1)c1cc2ccccc2oc1=O	0.6	50.6	-37.4	0.3	1.96µM*
CCOC(=O)c1c(C)[nH]c(C(=O)COC(=O)CCSc2ccccc2)c1C	-8.1	-1.4	-1.2	7.3	4.1%
OC(c1ccccn1)(c1ccccn1)c1ccccn1	-36.3	2.2	-18.4	-2.2	6.4%
COc1ccc(OC)c(-n2c(SCC(=O)N3CCc4ccccc43)nc3c(c2=O)SCC3)c1	-0.5	-1.9	-25.9	-6.0	8.2%
CN1C(=O)CSc2ccc(C(=O)O)cc21	16.2	14.2	-19.3	-2.2	-10.8%	Arbovirus anti repeat=6.8
O=C(Nc1ccc(C(=O)N2CCN(c3ccccc3)CC2)cc1)C1=CSCCO1	.	-0.8	.	-0.2	.
COCC(C)NC(=O)Cn1c(SCc2ccccc2)nc2ccccc21 (centres undefined)	.	3.9	.	-0.4	.
COc1ccc(/C=C/C(=O)OCC(=O)c2ccc3c(c2)NC(=O)CO3)c(OC)c1	.	-0.8	.	-2.4	0.0%
COC(=O)/C=C/c1c(C)nc(NCc2ccccc2)nc1Cl	.	4.2	.	-2.1	.
COc1ccc(C(=O)NC(=S)NC(C)C)cc1Br	-0.4	3.4	-16.3	2.0	6.7%
CCN1CCN(CC(=O)Nc2ccc(C)c(Br)c2)CC1	.	10.2	.	0.5	.
COc1cc(C(=O)N/C(=C/c2ccc(F)cc2)C(=O)NC(C(=O)O)c2ccccc2)cc(OC)c1OC (centres undefined)	.	1.4	.	-0.3	.
CN(Cc1ccccc1)C(=O)COC(=O)c1ccc2c(c1)OCO2	21.0	4.7	-41.9	-0.2	10.1%	Arbovirus anti repeat=0.0
(listing goes on)
SMILES	Arbovirus anti	Mtb bLac sens	YopH inh	RecA intein inh	Mtb H37Rv	others
Cn1c(CC(=O)Nc2ccccc2)nnc1SCC(=O)NC1CCCC1	.	-1.4	.	0.9	.
O=C(CN1C(=O)c2ccccc2S1(=O)=O)Nc1ccccc1C(=O)NCc1ccco1	-0.6	15.0	5.4	-2.0	0.6%
COC(=O)c1c(NC(=O)CN2CCC3(O)CCCCC3C2c2cc(OC)ccc2OC)sc(C)c1C (centres undefined)	-15.8	3.9	-8.9	12.4	18.3%
CCn1c(=O)n(CC)c2cc(S(N)(=O)=O)c(C)cc21	-2.4	9.7	-27.0	-0.7	11.4%
Cn1cc(CC(=O)N2CCN(c3ccc(Cl)cc3)CC2)c2ccccc21	8.8	0.4	1.6	5.8	5.9%
CCOC(=O)C1CCN(S(=O)(=O)c2c(C)[nH]c(C)c2C(=O)N2CCCC2)CC1	.	-6.0	.	-1.3	.
CCCOc1ccc(/C=C/c2c([N+](=O)[O-])c(=O)n(C)c(=O)n2C)cc1	.	5.1	.	3.6	.
Cc1c(C)c(C)c2[nH]c(=S)[nH]c2c1C	.	-6.4	.	-2.5	2.8%
C=C(C)C1CC=C(C)/C(=N/NC(=O)COc2ccc(Cl)cc2)C1 (centres undefined)	0.5	8.8	-13.6	-0.9	0.1%
CCn1cc(C(=O)N[C@H](C(=O)NC(C)(C)CO)C(C)C)c(=O)c2cc3c(cc21)OCO3	.	2.1	.	-1.6	.
CC(C)(C)n1cnc2cc(NS(=O)(=O)c3ccccc3)ccc21	9.9	4.8	-11.5	1.9	0.0%
O=C(NNC(=O)c1cccc([N+](=O)[O-])c1)c1ccncc1	3.6	4.5	.	-0.5	1.4%
CCc1ccc(NC(=O)c2ccc(NC3=NC4CS(=O)(=O)CC4S3)cc2)cc1 (centres undefined)	.	1.6	.	1.3	.
CC1CCN(C(=O)CSc2nnc(Cc3cc(=O)[nH]c(=O)[nH]3)n2-c2ccc(Cl)cc2)CC1	3.8	5.7	-4.5	1.8	-7.0%	Arbovirus anti repeat=0.4
S=C(N/N=C/c1ccc(Cl)cc1)N1CCOCC1	-34.8	8.4	-12.7	-7.2	-2.6%
C=CCn1c(SCC(=O)NC2CCCCC2)nc2ccccc2c1=O	-2.2	-8.3	.	-1.3	-1.4%
Cc1cccc(C)c1NC(=O)CN(C)C(=O)CC1Sc2ccccc2NC1=O (centres undefined)	.	-5.8	.	-1.0	.
COc1ccc(C(=O)NCCCOc2cccc(NC(C)=O)c2)cc1	.	0.7	.	-0.7	-7.4%
CC(C)C(=O)Nc1ccc(C(=O)NC2CCSC2=O)cc1 (centres undefined)	1.6	10.4	-32.9	-1.2	-3.4%
O=C(CN1C(=O)NC2(CCOc3ccccc32)C1=O)c1ccc(Cl)cc1 (centres undefined)	.	-6.9	.	2.0	.
CN1/C(=C\C=O)C(C)(C)c2ccccc21	17.8	-0.1	.	-0.3	1.8%
O=c1nc2n(c3cc(Cl)c(S(=O)(=O)N4CCOCC4)cc13)CCCCC2	4.2	-6.5	-37.9	-1.0	-0.1%
Cc1ccc(C(=O)O)cc1NC(=O)c1cccs1	-2.2	7.6	-36.0	1.3	-7.3%
Cc1cccc(OCC(=O)NCCNC(=O)c2ccco2)c1	.	-1.4	.	-0.4	.
C=CCn1c(CC(=O)Nc2ccc(C)cc2C)nnc1SCC(=O)N1CCOCC1	.	-12.7	.	-0.2	.
Continued:
SMILES	Arbovirus anti	Mtb bLac sens	YopH inh	RecA intein inh	Mtb H37Rv	others
O=C(NC(=S)NC1CCSC1=O)c1cccs1 (centres undefined)	7.9	-1.2	-26.7	-0.4	2.8%
NC(=O)C1(N2CCCCC2)CCN(Cc2ccc(Br)cc2)CC1	.	5.9	.	.	1.7%
CC1CCN(C(=O)CN(c2cccc(F)c2)S(C)(=O)=O)CC1	-0.9	-9.2	.	-1.1	-6.9%
COC(C(=O)Nc1ccc(S(=O)(=O)Nc2ccc(C)c(C)c2)cc1)c1ccccc1 (centres undefined)	-23.9	-6.3	-25.0	6.1	5.8%
CCCc1ncc(C(=O)c2ccc(OC)cc2)n1C	2.2	3.3	2.8	-0.2	1.5%
COCCNC(=O)Cn1cc(/C=N/NC(=O)c2ccc(Oc3ccc(O)cc3)cc2)c2ccccc21	-11.8	1.8	.	-1.2	3.2%
Cc1ccc(Cn2c(C(C)Nc3nc(-c4ccc(Cl)c([N+](=O)[O-])c4)cs3)nc3cc(C(F)(F)F)ccc32)cc1 (centres undefined)	.	-3.3	.	-0.7	-5.5%
COc1ccc(C(=O)NCC(=O)n2nc(C)cc2C)cc1OC	1.6	-4.2	-13.3	0.7	-7.4%
Cc1nc(C#N)c(N/N=C/c2c(F)cccc2Cl)o1	-1.2	7.0	-21.1	-0.5	.
CC(C)n1c(SCC(=O)Nc2ccc3c(c2)OCO3)nc2c1c(=O)n(C)c(=O)n2C	1.6	-7.0	-45.3	.	-4.6%
O=C(Nc1ncc2c(n1)-c1ccccc1OC2)c1ccc(Cl)cc1Cl	-1.0	-2.8	-4.1	0.3	-2.9%
CCc1cc2c(cc(C(=O)O)n2C)s1	-4.0	56.5	-27.7	-0.6	5.8%
CCOC(=O)CSc1nnc(-c2ccc(OC)cc2OC)o1	11.7	98.3	8.3	-0.3	1.24µM*
CCOC(=O)C(C)Oc1ccc2c(C)cc(=O)oc2c1C(C)=O (centres undefined)	-1.4	-18.7	5.7	0.6	-9.4%
O=C(COC(=O)/C=C/c1cccs1)Nc1cccc(S(=O)(=O)N2CCOCC2)c1	8.1	-1.3	.	0.3	4.4%
COCCn1c(SCCCc2ccccc2)nc2c1c(=O)[nH]c(=O)n2C	-7.0	2.5	-31.4	.	8.0%
CCc1nnc(NC(=O)c2ccc(S(=O)(=O)NC3CCCCC3)cc2)s1	-6.0	1.1	-10.4	-0.5	1.4%
CC(=O)c1cccc(N(C(=O)c2ccco2)C(C(=O)NC2CCCC2)c2cccs2)c1 (centres undefined)	.	-6.2	.	-1.5	.
O=C(CSCc1cc(=O)[nH][nH]1)Nc1ccc(F)cc1	4.6	-0.2	.	84.5*	6.9%
COC(=O)n1c(=O)oc2cc(S(=O)(=O)N3CCOCC3)ccc21	-1.9	-20.5	-28.5	1.6	1.9%
O=[N+]([O-])c1ccc(S(=O)(=O)CC(CN2CCCCC2)N2CCCCC2)cc1 (centres undefined)	-27.3	14.5	.	0.0	8.0%
O=C(NCc1ccncc1)C(=O)NCC1OCCN1S(=O)(=O)c1ccc(Br)cc1 (centres undefined)	.	5.3	.	-0.4	.
NC(=O)C1CCN(C(=O)C23CC4CC(CC(C4)C2)C3)CC1	-0.1	-8.3	-51.3	1.2	-3.0%
Cc1cc(C(=O)N/N=C/c2ccc(C)o2)c2ccccc2n1	-12.9	6.3	10.8	-3.9	-1.9%
CCOC(=O)[C@@H]1[C@H]2COc3cc(OC)ccc3[C@@H]2N2C(=O)N(c3ccc(OC)cc3)C(=O)[C@]12C	.	-7.7	.	2.7	.
O=C(NC1CCCC1)C1CCCN1C(=O)Oc1ccccc1 (centres undefined)	8.5	-2.1	.	-3.9	-2.6%
COc1ccc(C(=O)CSc2nnc(-c3ccco3)n2CC2CCCO2)cc1 (centres undefined)	0.8	-1.8	-51.8	1.0	11.8%
O=C1C=C(O)c2c(O)cc(O)c(O)c2C1=O	.	5.2	.	17.5	-3.7%

Sorted by molecular weight (high to low): 15 of the compounds above.
SMILES	Arbovirus anti	Mtb bLac sens	YopH inh	RecA intein inh	Mtb H37Rv	others
CC1CCN(C(=O)CSc2nnc(Cc3cc(=O)[nH]c(=O)[nH]3)n2-c2ccc(Cl)cc2)CC1	3.8	5.7	-4.5	1.8	-7.0%	Arbovirus anti repeat=0.4
CC(=O)c1cccc(N(C(=O)c2ccco2)C(C(=O)NC2CCCC2)c2cccs2)c1 (centres undefined)	.	-6.2	.	-1.5	.
COc1ccc(/C=C/C(=O)OCC(=O)c2ccc3c(c2)NC(=O)CO3)c(OC)c1	.	-0.8	.	-2.4	0.0%
CCc1nnc(NC(=O)c2ccc(S(=O)(=O)NC3CCCCC3)cc2)s1	-6.0	1.1	-10.4	-0.5	1.4%
Cn1cc(CC(=O)N2CCN(c3ccc(Cl)cc3)CC2)c2ccccc21	8.8	0.4	1.6	5.8	5.9%
COc1ccc(C(=O)NC(=S)NC(C)C)cc1Br	-0.4	3.4	-16.3	2.0	6.7%
CCOC(=O)CSc1nnc(-c2ccc(OC)cc2OC)o1	11.7	98.3	8.3	-0.3	1.24µM*
O=C(NC1CCCC1)C1CCCN1C(=O)Oc1ccccc1 (centres undefined)	8.5	-2.1	.	-3.9	-2.6%
S=C(N/N=C/c1ccc(Cl)cc1)N1CCOCC1	-34.8	8.4	-12.7	-7.2	-2.6%
CCn1c(=O)n(CC)c2cc(S(N)(=O)=O)c(C)cc21	-2.4	9.7	-27.0	-0.7	11.4%
Cc1nc(C#N)c(N/N=C/c2c(F)cccc2Cl)o1	-1.2	7.0	-21.1	-0.5	.
Cc1ccc(C(=O)O)cc1NC(=O)c1cccs1	-2.2	7.6	-36.0	1.3	-7.3%
CCCc1ncc(C(=O)c2ccc(OC)cc2)n1C	2.2	3.3	2.8	-0.2	1.5%
CN1C(=O)CSc2ccc(C(=O)O)cc21	16.2	14.2	-19.3	-2.2	-10.8%	Arbovirus anti repeat=6.8
CN1/C(=C\C=O)C(C)(C)c2ccccc21	17.8	-0.1	.	-0.3	1.8%

Not a retest: two of the compounds above.
SMILES	Arbovirus anti	Mtb bLac sens	YopH inh	RecA intein inh	Mtb H37Rv	others
Nc1ccc(C(=O)NCc2ccccc2)cc1	1.3	-4.1	.	-6.2	8.9%
CC(=O)NCc1ccc(S(=O)(=O)NC(C)CCc2ccccc2)cc1 (centres undefined)	.	0.3	.	2.4	.
